Compound activity from PubChem BioAssay.
ClpP mod – qHTS Assay for Activators of ClpP; ATP-dependent Clp protease proteolytic subunit (Bacillus subtilis (strain 168)), P80244; purified B. subtilis ClpP, FRET peptide cleavage, 20 min; Potency, µM (series often up to 57.5 µM), without a hit: top-dose activity change, negative = active; actives 1.9% (n = 340,000); active = well fitted falling curve with a large enough effect; inconclusive = small, poorly fitted or top-dose-only effect; inactive = no such curve, though single readings can be large or run the other way; further: potency means the concentration at half of the fitted maximal effect; the source files actives as falling curves though it sought activators and does not explain the sign; nearly all actives have a fitted effect of over 65% in size; many hits overshoot -100%
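Purified B. subtilis ClpP, 10 microg/mL final in Tris/HCl pH8 with KCl, BSA, glycerol and Tween-20, cleaved an Abz/nitrotyrosine-quenched decapeptide. Fluorescence (ex 320, em 430) was read at 0 and 20 min at room temperature. Delta was normalized to 5.8 microM ADEP and DMSO/no-enzyme controls.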
TRPV1 potentiator – human TRPV1 potentiation. AID 540277. actives 0.02% (n = 320,000). TRPV1-expressing cells, Fluo-8 calcium influx, capsaicin EC20 potentiation; host cell line not named in the record; control for the full effect not named in the record. potentiation, % at 8.33 µM. Q8NER1; active means potentiation above 80%; inconclusive means 30% to 80%; inactive means below 30%; further: 0% is about no effect
Target sequence (Q8NER1 whole entry, looked up): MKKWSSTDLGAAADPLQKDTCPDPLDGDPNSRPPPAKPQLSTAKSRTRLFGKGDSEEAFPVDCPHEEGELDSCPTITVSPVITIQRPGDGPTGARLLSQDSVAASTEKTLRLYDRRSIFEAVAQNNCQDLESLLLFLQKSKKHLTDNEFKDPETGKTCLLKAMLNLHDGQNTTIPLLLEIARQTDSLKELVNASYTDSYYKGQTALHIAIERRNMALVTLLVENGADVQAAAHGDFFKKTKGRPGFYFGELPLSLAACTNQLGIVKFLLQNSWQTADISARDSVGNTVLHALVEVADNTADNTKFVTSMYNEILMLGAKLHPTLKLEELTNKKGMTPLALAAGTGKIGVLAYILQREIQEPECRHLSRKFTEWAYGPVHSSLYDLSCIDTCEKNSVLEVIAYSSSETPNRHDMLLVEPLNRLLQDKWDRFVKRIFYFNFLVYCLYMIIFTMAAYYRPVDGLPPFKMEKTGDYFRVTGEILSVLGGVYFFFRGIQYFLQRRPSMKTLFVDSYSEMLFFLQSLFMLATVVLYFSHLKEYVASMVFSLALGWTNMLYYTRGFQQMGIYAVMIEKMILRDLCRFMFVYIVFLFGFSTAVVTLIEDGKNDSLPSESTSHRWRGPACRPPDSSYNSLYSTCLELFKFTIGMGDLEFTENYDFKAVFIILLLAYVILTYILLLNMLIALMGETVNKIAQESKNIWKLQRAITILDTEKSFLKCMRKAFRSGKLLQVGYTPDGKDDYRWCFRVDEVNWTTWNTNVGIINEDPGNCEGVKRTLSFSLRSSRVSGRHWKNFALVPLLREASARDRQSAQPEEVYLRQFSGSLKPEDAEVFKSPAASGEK
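TRPV1-expressing cells were cultured overnight at 35.5C and loaded with Fluo-8 calcium dye for 40 to 90 min at room temperature. After a 10 s baseline, compound was added and calcium influx was read kinetically for 3 min (ex 480/em 520 nm).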
gsp antag – gsp mutant antagonism; Potency, µM (titrated, usually from 76.9 µM), without a hit: top-dose activity change, negative = inhibition, usual class: inhibitors; actives 0.4% (n = 340,000); AID 624288; gsp-mutant cells, cAMP HTRF, 30 min; control for the full effect not named in the record; active = falling curve of any shape with a large fitted effect; inconclusive = falling curve, mostly with a smaller effect; inactive = flat or rising curve; cell line not stated here;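 further: intracellular cAMP measured with PDE inhibitor Ro 20-1724 present during compound exposure; potency means the concentration at half of the fitted maximal effect; on the % scale 0 is the no-effect control and ±100 the full control effect; nearly all actives have a fitted effect of over 65% in size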
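G418-selected cells were plated in DMEM/10% FBS for 16-24 h at 37C, then treated with compounds plus the PDE inhibitor […] (300 uM solution added) for 30 min at 37C. Intracellular cAMP was measured by HTRF after 30 min lysis at room temperature.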
CtBP-E1A blk – CtBP/E1A binding inhibition; AID 651724; AlphaScreen GST-E1A/His-CtBP binding, 1536-well; hits give low values; control for the full effect not named in the record; actives 0.49% (n = 340,000); activity change, % (test concentration not listed); in the data active means activity change below about -65%; inconclusive means about -30% to -65%; inactive means above about -30%; further: on the % scale 0 is the no-effect control and ±100 the full control effect; compound concentration not given in the record
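GST-E1A and His-tagged CtBP (125 nM each as 5X stock) were preincubated with pin-transferred compound for 2 h at 37 °C in the dark, then glutathione donor and nickel acceptor beads were added for 1 h before AlphaScreen reading.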
gsp ag – gsp mutant agonism | actives 0.13% (n = 340,000) | Potency, µM (top dose mostly 76.9 µM), inactives show top-dose activation (cAMP increase), hits mostly activators | gsp mutant cells, cAMP HTRF, 30 min; control for the full effect not named in the record; active = well fitted activation curve with a large enough effect; inconclusive = small, poorly fitted or top-dose-only effect, or another doubt; inactive = no such curve, though single readings can be large or run the other way; cell line not stated here;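 further: phosphodiesterase inhibitor Ro 20-1724 added with compounds to block cAMP breakdown; potency means the concentration at half of the fitted maximal effect; nearly all actives have a fitted effect of over 60% in size; about a fifth of the inactives were tested at one dose only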
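Cells stably selected in G418 were plated at 2000/well, grown 16-24 hr, then given compounds in DMSO with the PDE inhibitor […] (300 uM solution added) for 30 min at 37C; cAMP was read by HTRF.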
Sfp inh – inhibitors of Bacillus subtilis Sfp phosphopantetheinyl transferase; Potency, µM, for the others: max response, negative = inhibition, most hits filed as inhibitors; AID 1490; actives 3.5% (n = 310,000); Biochemical Sfp PPTase activity, qHTS; active means well fitted inhibition curve with a large enough effect; inconclusive means small, poorly fitted or top-dose-only effect, or another doubt; inactive means no such curve, though single readings can be large or run the other way;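 further: the enzyme is Sfp with the accession as filed and its product quenches rhodamine fluorescence; potency means the concentration at half of the fitted maximal effect; 0% = enzyme reaction without inhibitor and -100% = no enzyme wells; top concentration of the series not given in the record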
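Sfp 15 nM + cpd, 15 min RT; start w/ rhodamine-CoA 5 uM, BHQ-2-YbbR 12.5 uM (final); 50 mM Hepes pH 7.6, 10 mM MgCl2, 0.01% NP-40, 0.01% BSA; read 525/598 nm at 0 and 30 min.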
Menin-MLL FL inh – displaces fluorescein MLL peptide from human menin | FP activity change, % at 61.4 µM | Fluorescence polarization, fluorescein-MLL peptide displacement from menin | 290,000 tested, under 10 active; inconclusive = falling polarisation curve, or a change in total fluorescence; inactive = total fluorescence flat and polarisation flat or rising; no compound was filed as active; the % refers to the polarisation; negative = inhibition;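 further: % of control where 0% means no effect; inhibitors lower the polarisation; unlabelled MLL peptide was the positive control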
Starred values were filed as active, the others as inactive; ? = inconclusive; nt = no result given; & = joins results of further samples; ! = not confirmed by another sample; [ ] = another dose, or the depositor's remark.

A first look (four entries):
SMILES	ClpP mod	TRPV1 potentiator	gsp antag	CtBP-E1A blk	gsp ag	Sfp inh	Menin-MLL FL inh
COC(=O)C1=C(c2ccc(-c3ccccc3)c(F)c2)C[C@@H]2CC[C@H]1N2C(=O)NCc1ccc(F)cc1	-11%	-4	-16%	-2	-2%	nt	nt
CN(C)CCN(CC1CCCN(Cc2ccccc2F)C1)C(=O)Cc1c(F)cccc1F (stereo unspecified)	1.8%	5	5%	5	-18%	19%	2.8
COc1ccc(C(=O)C2CN(C)CC2C(=O)c2ccc(OC)cc2)cc1 (stereo unspecified)	-1.8%	12	3%	-10	19%	-3%	5.6
CCC(COC(=O)NC)NC(=O)Oc1ccccc1 (stereo unspecified)	-2.2%	2	-7%	-13	-2%	11%	3.0

This part in full, from the start:
SMILES	ClpP mod	TRPV1 potentiator	gsp antag	CtBP-E1A blk	gsp ag	Sfp inh	Menin-MLL FL inh
COC(=O)C1=C(c2ccc(-c3ccccc3)c(F)c2)C[C@@H]2CC[C@H]1N2C(=O)NCc1ccc(F)cc1	-11%	-4	-16%	-2	-2%	nt	nt
CN(C)CCN(CC1CCCN(Cc2ccccc2F)C1)C(=O)Cc1c(F)cccc1F (stereo unspecified)	1.8%	5	5%	5	-18%	19%	2.8
COc1ccc(C(=O)C2CN(C)CC2C(=O)c2ccc(OC)cc2)cc1 (stereo unspecified)	-1.8%	12	3%	-10	19%	-3%	5.6
CCC(COC(=O)NC)NC(=O)Oc1ccccc1 (stereo unspecified)	-2.2%	2	-7%	-13	-2%	11%	3.0
O=C1C2CCN(CC2)C1Cc1ccc(OCCOc2ccccc2)cc1 (stereo unspecified)	1.8%	-9	2%	0	-2%	-12%	-1.3
CN1CC(Br)C(=O)NC1=O (stereo unspecified)	-0.5%	nt	15%	-1	-2%[15.4 µM]	nt	nt
CCCC[N+]1(C)C2CC(OC(=O)C(CO)c3ccccc3)CC1C1OC12 (stereo unspecified)	-0.2%	-5	-22%	7	nt	9%&-9%	4.9&4.5&-4.6
O=C(Nc1ccccc1)c1cccn(Cc2ccccc2)c1=O	nt	-11	-11%	-9	-2%[15.4 µM]	-9%	1.0
COc1ccc2cc1Oc1ccc(cc1)C[C@H]1c3cc(c(OC)cc3CCN1C)Oc1c(OC)c(OC)cc3c1[C@H](C2)N(C)CC3	-2.3%&-2.7%	-29	-7%	-28	nt	-1%&1%&3%&2%	?
O=C(Cc1ccc([N+](=O)[O-])cc1)N1CCN(Cc2ccc3c(c2)OCO3)CC1	nt	-8	-1%	-1	13%[15.4 µM]	-6%	2.8
CCc1ccc(N2C(=O)NC(=O)C(CCc3ccncc3)(CCc3ccncc3)C2=O)cc1	-13%	7	-7%	0	-2%	-5%	-0.2
COc1ccc(CCn2c(NN=C3CCCCC3)nc3c2c(=O)[nH]c(=O)n3C)cc1	nt	5	-15%	?	-40%[inhibitor]	?	4.1
C=CCn1c(CSc2ccccc2[N+](=O)[O-])n[nH]c1=S	nt	9	-25%	-15	-9%[15.4 µM]	?	2.4
Cc1cccc(N2CCc3c2nc2ccccc2c3N)c1	25µM*!	17&-7	-5%&-6%	0&-2	?	28µM*	3.3&-0.1
Cc1cccc(-n2c(-c3cccs3)nc3ccccc3c2=O)c1	-1.0%	1	-14%	13	-3%[15.4 µM]	4%	5.9
CC(=O)OC1(c2ccccc2)CCN(C)C2CCCCC21 (stereo unspecified)	1.6%	-2	7%	11	?	-8%	6.8
CCC(=O)OC(Cc1ccccc1)(c1ccccc1)[C@H](C)CN(C)C (stereo partly specified)	1.1%	nt	-1%	-10	nt	nt	nt
Cc1cc(-c2ccccc2)cc(-c2ccccc2)[n+]1CCc1ccccc1	-22%	-15	11%	2	nt	nt	nt
CN(C)c1ccc(C=C2C(=O)NC(=S)NC2=O)cc1[N+](=O)[O-]	0.3%	3	-13%	-14	-14%[15.4 µM]	-87%	0.6
C=CCn1c(=O)c(C(=O)NCc2ccccc2)c(O)c2ccccc21	?	-4	-2%	nt	11%	0%	-1.1
COc1ccc(-n2c(-c3ccccc3F)nc3ccccc3c2=O)cc1	-1.4%	nt	nt	-1	-25%	nt	nt
O=C(O)CN1C(=O)CC(Cc2ccc(Cl)cc2)C1=O (stereo unspecified)	-1.1%	-17	6%	1	-1%	24%	-1.5
CCC(=NCC1CCCO1)c1c(O)n(-c2ccccc2)c(=O)[nH]c1=O (stereo unspecified)	-0.9%	-2	11%	5	22%	9%	3.6
CCC1C(c2ccccc2)NC(c2ccccc2)CC1(O)c1ccc(F)cc1 (stereo unspecified)	-0.5%	-3	-12%	nt	-24%	0%	2.2
COc1ccc(SCC2CN(C)CCC2c2ccc(F)cc2)cc1 (stereo unspecified)	-4.9%	nt	6%	-26	-2%	nt	nt
c1ccc(CCCN2CCN(CCOC(c3ccccc3)c3ccccc3)CC2)cc1	0.0%	nt	-10%	?	nt	-17%&-9%	-3.7&-4.0
CCCCCCn1c(N)c(C(=O)NCCN2CCOCC2)c2nc3ccccc3nc21	25µM*	-30	11%	23	-29%	-25%	3.3
CCN(C(=O)CN1CC=C(c2ccccc2)CC1)c1c(N)n(Cc2ccccc2)c(=O)[nH]c1=O	nt	-13	10%	0	8%[15.4 µM]	19%	-1.9
COC(=O)C1=C(c2cc3ccccc3o2)C[C@@H]2CC[C@H]1N2C(=O)NCc1cccc2ccccc12	-29%	nt	-14%	nt	-83%[inhibitor]	nt	nt
COC(=O)C1=C(c2ccc(F)cc2F)C[C@@H]2CC[C@H]1N2C(=O)NCCOc1ccc(OC)cc1	-1.4%	-9	-13%	nt	14%	nt	nt
CCN(c1ccc(C(O)(C(=O)OC)C(F)(F)F)cc1)S(=O)(=O)c1ccc(C)cc1 (stereo unspecified)	-2.5%	-6	-16%	0	1%	5%	5.1
CC1CCCN(CC(=O)c2ccc(Cl)c(Cl)c2)C1 (stereo unspecified)	1.4%	5	1%	11	1%	-5%	2.3
CC(=O)OC[C@]12CCC(C)=C[C@H]1O[C@@H]1[C@H](O)[C@@H](OC(C)=O)[C@@]2(C)[C@]12CO2	-3.7%	-14	4%	-24	nt	18%	0.0

A second format for five compounds above.
canonical_smiles | ClpP mod | TRPV1 potentiator | gsp antag | CtBP-E1A blk | gsp ag | Sfp inh | Menin-MLL FL inh
CCN(C(=O)CN1CC=C(c2ccccc2)CC1)c1c(N)n(Cc2ccccc2)c(=O)[nH]c1=O | nt | -13 | 10% | 0 | 8%[15.4 µM] | 19% | -1.9
COC(=O)C1=C(c2cc3ccccc3o2)C[C@@H]2CC[C@H]1N2C(=O)NCc1cccc2ccccc12 | -29% | nt | -14% | nt | -83%[inhibitor] | nt | nt
COC(=O)C1=C(c2ccc(F)cc2F)C[C@@H]2CC[C@H]1N2C(=O)NCCOc1ccc(OC)cc1 | -1.4% | -9 | -13% | nt | 14% | nt | nt
CCN(c1ccc(C(O)(C(=O)OC)C(F)(F)F)cc1)S(=O)(=O)c1ccc(C)cc1 (stereo unspecified) | -2.5% | -6 | -16% | 0 | 1% | 5% | 5.1
CC1CCCN(CC(=O)c2ccc(Cl)c(Cl)c2)C1 (stereo unspecified) | 1.4% | 5 | 1% | 11 | 1% | -5% | 2.3

A portion of the library; count on the stated rates, not on these rows.
